# Insulin prom inh: TRM-6 insulin promoter activity inhibition; TRM-6 cells (human fetal islet line), insulin promoter-eGFP reporter, imaging; reporter expression induced with tamoxifen; inhibition, % at 2 µM; actives 0.9% (n = 130,000); AID 1273;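 active = inhibition above the mean plus 3 SD, with well images judged a real hit on visual review, cut at about 60% in these data, passing the limit was not always enough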
# PKD1 inh: blocks activity of human protein kinase D1 | AID 797 | inhibition, %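 (about 10 µM by stock and volumes)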 | actives 0.056% (n = 200,000) | PKD1 kinase fluorescence polarization assay;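 active = inhibition of 50% or more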;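 note: controls were vehicle for no effect and a reference inhibitor for full effect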
# RGS16-Gao: RGS16-Galphao interaction regulator (human); O15492+P09471; bead-based flow cytometry RGS16-Galphao binding, fluorescence; actives lie on both sides; binding response (% of control), % at 10 µM; actives 0.38% (n = 220,000); AID 1441;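 active = below 25% or above 175%, edge rows of some plates excepted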;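 note: Galphao activated by GDP with aluminum fluoride before binding; 100% = wells without compound and 0% = beads without RGS; some results beyond the cut were filed as inactive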
# Target sequence (O15492 whole entry, looked up): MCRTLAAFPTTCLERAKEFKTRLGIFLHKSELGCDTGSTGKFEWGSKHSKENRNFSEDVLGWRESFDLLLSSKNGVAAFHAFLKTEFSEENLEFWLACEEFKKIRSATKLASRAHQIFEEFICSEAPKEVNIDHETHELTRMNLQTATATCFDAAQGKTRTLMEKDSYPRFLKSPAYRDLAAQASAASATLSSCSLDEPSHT
# Target sequence (P09471 whole entry, looked up): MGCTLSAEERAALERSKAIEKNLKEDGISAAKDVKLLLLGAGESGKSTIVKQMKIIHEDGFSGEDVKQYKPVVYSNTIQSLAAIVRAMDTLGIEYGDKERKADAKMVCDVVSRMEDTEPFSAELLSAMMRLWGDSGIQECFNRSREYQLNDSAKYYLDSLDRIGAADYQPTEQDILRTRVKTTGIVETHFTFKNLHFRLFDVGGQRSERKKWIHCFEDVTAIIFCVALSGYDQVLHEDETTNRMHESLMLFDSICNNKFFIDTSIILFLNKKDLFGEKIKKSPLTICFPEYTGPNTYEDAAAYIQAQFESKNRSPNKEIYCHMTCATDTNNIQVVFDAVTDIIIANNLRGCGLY
# HSV augment: HSV replication enhancement; HSV replication augmentation in cells, fold increase; maximum fold increase; actives 0.005% (n = 220,000);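 active = peak rise of 1.5-fold or more in the series; tested in PC3 cells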;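 note: first round at 10 µM; read as green reporter fluorescence; hits show the peak of a series up to 25 µM; 1 = signal of infected wells without compound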
# GALR2 agonist: agonists of human galanin receptor 2 (GALR2). O43603. actives 0.48% (n = 140,000). activation, %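 (tested at 5 µM)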. GALR2-expressing cells, agonist activation read-out;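 active = above mean plus 3 SD of all compounds, about 5% in these data, not always enough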;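 note: 0% = vehicle buffer wells and 100% = reference agonist at full effect; tested in CHO reporter cells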
# Target sequence (O43603 whole entry, looked up): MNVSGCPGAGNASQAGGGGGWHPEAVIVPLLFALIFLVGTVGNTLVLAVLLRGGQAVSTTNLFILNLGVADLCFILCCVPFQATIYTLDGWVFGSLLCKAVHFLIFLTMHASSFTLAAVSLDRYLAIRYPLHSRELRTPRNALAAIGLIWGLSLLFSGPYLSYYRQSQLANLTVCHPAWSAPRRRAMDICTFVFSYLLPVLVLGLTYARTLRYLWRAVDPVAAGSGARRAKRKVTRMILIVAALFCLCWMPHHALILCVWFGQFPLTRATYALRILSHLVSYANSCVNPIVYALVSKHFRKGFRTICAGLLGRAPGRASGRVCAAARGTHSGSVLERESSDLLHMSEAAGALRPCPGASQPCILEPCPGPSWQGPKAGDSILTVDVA
# Insulin prom inh cell count: second read-out of Insulin prom inh, no call of its own (marks repeat the call); normalized cell count, %; measured here: cell count, toxicity; reference of the scale not given here;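 cells exposed to compound for 48 h; stained nuclei by imaging scaled within each plate; lower means fewer cells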
# HSV augment primary fold: also measured in HSV augment; calls as there; fold increase; compound at 10 µM; measured here: primary screen fold increase 10 uM; tested in PC3 cells;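 GFP signal in the first replicate; 1 = infected wells without compound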
# Starred values were filed as active, the others as inactive; i = inactive; x = not tested or not shown; & = joins results of further samples.
SMILES,Insulin prom inh,Insulin prom inh cell count,PKD1 inh,RGS16-Gao,HSV augment,HSV augment primary fold,GALR2 agonist
Cc1cnc(C(=O)Nc2ccc(N3CCN(C(=O)OC(C)(C)C)CC3)cc2)cn1,-7.1,162.9,-1.0,101.1,i,0.59,-1.5
O=C(C1CC1c1ccccc1)N1CCN(c2cccc(Cl)c2)CC1 (centres undefined),x,x,-3.2,107.8,i,1.04,-1.2
COCC(C)Nc1ncnc2c1cnn2-c1ccc(Cl)cc1 (centres undefined),x,x,-6.9,99.2,i,1.04,-2.4
COCCNC(=O)C1CCN(S(=O)(=O)c2c(C)noc2/C=C/c2cccs2)CC1,x,x,x,98.3,i,0.96,x
c1ccc(C2=Nc3cccnc3C(c3ccccc3)=NN2)cc1,-5.9,83.1,-0.4,96.6,i,1.04,x
COc1ccc(CCNC(=O)c2cc3sccc3n2C)cc1OC,x,x,-12.2,x,i,1.01,-0.3
CCOC(=O)CSc1nc2c(sc(=S)n2Cc2ccco2)c(=O)n1-c1ccccc1,-87.5,80.0,12.8,103.1,i,0.9,-2.4
COc1ccc(C(=O)N2N=C(c3ccccc3)CC2(O)C(F)(F)F)cc1 (centres undefined),x,x,2.7,99.7,i,0.98,x
COC(=O)c1ccccc1NC(=O)C1COc2ccccc2O1 (centres undefined),21.4,117.7,-4.5,96.7,i,0.93,1.6
Cc1ccc(C(C(=O)NC(C)(C)C)N(Cc2ccc3c(c2)OCO3)C(=O)c2ccc(CN3CCOCC3)o2)o1 (centres undefined),x,x,-1.9,108.4,i,0.89,x
C/C(CS(=O)(=O)c1ccccc1)=N\O,-229.4,86.4,-7.2,108.9,i,0.97,x
N#C/C(=C\c1ccccc1)c1n[nH]c(Cn2cncn2)n1,17.2,91.1,-1.6,103.7,i,0.983,-2.3
O=C(Nc1ccc(N=Nc2ccccc2)c(NC(=O)C2CCCO2)c1)C1CCCO1 (centres undefined),-21.2,186.3,-1.3,94.4,i,0.8,-1.2
CO/C=C/C#CC1(O)CCN(C)CC1,x,x,-2.8,100.2,i,0.95,-0.5
O=c1ccc(OCCOc2ccccc2)nn1-c1ccccc1,-41.4,102.8,6.8,99.5,i,1.11,-0.1
COc1ccc(-c2c([C@H]3[C@H]4C=CC[C@@H](C)[C@@H]4C(=O)N3Cc3ccccc3)ccc3ccccc23)cc1OC,x,x,x,107.2,i,0.88,x
CCn1cc(Br)c(C(=O)NC(=S)Nc2ccc(C(=O)OC)cc2)n1,-33.3,103.9,2.5,104.3,i,0.98,-0.4
O=[N+]([O-])c1ccc(CSc2nnc(SCc3ccc(Cl)cc3)s2)cc1,11.8,79.9,24.0,50.0,i,1.13,-0.7
Cc1ccccc1CSc1nnc(Cn2c(=O)sc3ccccc32)n1C,x,x,-6.6,98.7,i,1.22,-1.0
CCOC(=O)Nc1nnc(-c2ccccc2OC)s1,16.2,49.3,-9.2,106.8,i,0.88,-0.9
CNC(=O)NC(=O)CSc1nc2ccccc2n1CCOC,47.4,85.7,8.8,102.6,i,1.02,-1.9
c1ccc(CNn2nnnc2-c2ccccc2)cc1,x,x,3.3,99.6,i,0.93,-1.3
CC(C)NC(=O)C1CCN(C2CCN(C(=O)c3scc4c3CCCC4)CC2)CC1,x,x,-4.9,93.0,i,1,x
COc1ccc(Cl)cc1NC(=S)N(CCN1CCOCC1)C1CCN(C(C)=O)CC1,7.1,78.3,1.8,90.3,i,0.97,x
COc1ccc(NC(=O)CSc2ncn(-c3ccccc3)n2)cc1Cl,-59.5,111.8,1.8,104.8,i,0.85,-1.2

# Among those listed so far, these have two or more sulfur atoms:
SMILES,Insulin prom inh,Insulin prom inh cell count,PKD1 inh,RGS16-Gao,HSV augment,HSV augment primary fold,GALR2 agonist
COCCNC(=O)C1CCN(S(=O)(=O)c2c(C)noc2/C=C/c2cccs2)CC1,x,x,x,98.3,i,0.96,x
CCOC(=O)CSc1nc2c(sc(=S)n2Cc2ccco2)c(=O)n1-c1ccccc1,-87.5,80.0,12.8,103.1,i,0.9,-2.4
O=[N+]([O-])c1ccc(CSc2nnc(SCc3ccc(Cl)cc3)s2)cc1,11.8,79.9,24.0,50.0,i,1.13,-0.7
Cc1ccccc1CSc1nnc(Cn2c(=O)sc3ccccc32)n1C,x,x,-6.6,98.7,i,1.22,-1.0

# Quoted from the listing:
# O=C(Nc1ccc(N=Nc2ccccc2)c(NC(=O)C2CCCO2)c1)C1CCCO1 (centres undefined) @ RGS16-Gao = 94.4
# CCOC(=O)Nc1nnc(-c2ccccc2OC)s1 @ PKD1 inh = -9.2
# CCOC(=O)CSc1nc2c(sc(=S)n2Cc2ccco2)c(=O)n1-c1ccccc1 @ PKD1 inh = 12.8
# Cc1cnc(C(=O)Nc2ccc(N3CCN(C(=O)OC(C)(C)C)CC3)cc2)cn1 @ HSV augment primary fold = 0.59

# More compounds
SMILES,Insulin prom inh,Insulin prom inh cell count,PKD1 inh,RGS16-Gao,HSV augment,HSV augment primary fold,GALR2 agonist
CNC(=O)c1csc(-c2cccs2)n1,27.8,111.5,-4.9,105.1,i,0.86,x
CNC(=S)NNC(=O)c1sc2cc(C(F)(F)F)cnc2c1-c1ccccn1,-9.1,183.2,-4.6,99.2,i,1.02,x
Cc1cc(NC(=O)CSc2nnc(C3CC3)n2Cc2ccccc2)no1,x,x,3.1,98.1,i,0.94,-1.3
O=c1ccc(/C=C/c2ccccc2)nn1Cc1ccc(F)cc1,0.0,88.3,-2.6,67.5,x,x,x
CC(C)COc1ccc(CNC(=S)N/N=C/c2ccc([N+](=O)[O-])cc2)cc1,-36.7,80.4,1.4,77.3,i,1.12,-2.0
CCOc1ccc(-c2nc(CSc3nnc(N)s3)cs2)cc1OC,-23.1,124.5,-2.2,101.5,i,0.95,-1.1
Clc1ccc(N=NN2CCOCC2)cc1,x,x,x,81.2,i,0.96,x
COC(=O)Nc1c(-c2ccccc2)nc2ccccn12,26.7,92.3,-11.7,110.5,i,1.14,0.0
O=C(O)CCC(=O)Nc1cccc(C(=O)c2ccccc2)c1,x,x,x,96.6,i,0.67,x
CCOC(=O)CNC(=O)N1CCCC(CNS(=O)(=O)Cc2ccccc2)C1 (centres undefined),x,x,-2.4,101.9,i,0.97,x
CCOC(=O)c1c(NC(=O)COC)sc2c1CCCC2,-12.1,152.2,-6.6,100.9,i,1.07,-1.2
CCOc1ccc(C(=O)NC2CCN(CC(=O)NCc3cccs3)CC2)cc1,23.1,135.2,-4.0,109.5,i,1.01,x
COc1ccc(-c2nc(NC(C)=O)sc2-c2ccc(OC)cc2)cc1,x,x,-13.0,98.3,i,0.89,x
O=C(OCCN1CCCCC1)c1ccc(Cl)cc1,x,x,1.6,101.4,i,1.05,-1.6
O=C(CSCc1ccccc1)Nc1nccs1,x,x,-9.5,99.0,i,1,-0.9
COC(=O)c1ccccc1NC(=O)CSc1n[nH]c(CC(C)C)n1,22.7,115.2,-5.5,103.5,i,0.9,-2.1
CCCCNC(=O)CCCCCNS(=O)(=O)c1ccc(Br)cc1,x,x,4.0,99.9,i,0.87,x
O=C(NCCN1CCOCC1)c1cc2n(n1)C(C(F)(F)F)CC(c1ccc(F)cc1)N2 (centres undefined),46.1,80.8,9.2,102.1,i,0.86,-1.2
CC1Cc2ccccc2N1C(=O)COC(=O)c1cccnc1Cl (centres undefined),-25.0,193.1,-5.1,102.3,i,1.07,-3.5
O=C(Cc1coc2ccc3ccccc3c12)Nc1nnc(C2CC2)s1,23.3,128.1,-8.6,95.4,x,x,-0.8
Clc1ccc(CN(CC2CCCO2)C(c2cccs2)c2nnnn2C2CCCC2)cc1 (centres undefined),34.3,116.4,0.3,99.0,i,1,-0.9
CCOC(=O)C1=C(C)NC2=C(C(=O)C(C(=O)OCC)C(c3cccc(OC)c3)C2)C1c1ccccn1 (centres undefined),-10.8,112.6,1.0,103.0,i,0.94,2.2
Cc1ccsc1C1CC(=O)NC2=C1C(=O)CC(C)(C)C2 (centres undefined),x,x,-4.7,103.8,i,1.05,-0.5
CN(Cc1ccc(F)cc1)C(=O)CCc1nnc(-c2ccccc2)o1,x,x,-7.7,112.8,i,0.71,x
C(=C\c1ccccc1)/CNCC1CCCO1 (centres undefined),x,x,-6.8,100.9,i,0.97,x
# Other results.
SMILES,Insulin prom inh,Insulin prom inh cell count,PKD1 inh,RGS16-Gao,HSV augment,HSV augment primary fold,GALR2 agonist
Cc1c(NC(=O)/C=C/c2ccc(S(=O)(=O)N3CCOCC3)cc2)c(=O)n(-c2ccccc2)n1C,-40.0,125.3,-1.9,98.7,i,1.06,x
O=C(NCCc1c[nH]c2ccccc12)/C(=C/c1cccnc1)NC(=O)c1ccccc1,-23.1,134.7,-0.8,97.4,i,1.05,x
COc1ccc(-c2noc(CSc3nc(N)cc(=O)[nH]3)n2)cc1,x,x,x,101.7,i,0.99,x
CCCCSc1nc2ccccc2n1CC(=O)O,38.1,89.3,-6.1,83.4,i,0.9,-0.9
Nc1ccc2c(c1)sc1ccccc12,6.2,115.0,-7.9,106.5,i,1.07,-1.0
COCCn1c(N2CCN(c3ccc(OC)cc3)CC2)nc2c1c(=O)[nH]c(=O)n2C,10.0,92.2,4.6,105.4,i,0.9,1.2
Cc1c(NC(=O)c2ccccc2N(C)S(=O)(=O)c2ccccc2)c(=O)n(-c2ccccc2)n1C,43.5,124.7,-6.1,106.5,i,0.75,-0.8
O=C(NC1CCCC1)C(c1cccs1)N(C(=O)c1ccco1)c1ccc2c(c1)OCO2 (centres undefined),-230.8,76.3,0.7,105.1,i,1.01,-2.6
COC(=O)c1ccc(C)c(NC(=O)Cc2coc3cc(OC)ccc23)c1,19.4,153.0,-4.9,107.0,i,0.82,-2.3
CCc1ccc2c(c1)C(c1ccc([N+](=O)[O-])cc1)=NNC(c1ccccc1)=N2,11.1,105.8,-5.3,105.7,i,0.94,-1.2
N/C(Cc1ccc(Cl)cc1Cl)=N\OC(=O)Cc1ccc(Cl)cc1,21.1,149.6,1.3,100.8,i,0.92,-0.7
CCOC(=O)N1CCN(C(=O)Nc2ccc3nc(-c4ccccn4)c(-c4ccccn4)nc3c2)CC1,-15.8,96.4,-6.3,161.8,i,0.99,-1.9
Cc1ccc(S(=O)(=O)Cc2ccc(C(=O)N3CCN(c4ccc(F)cc4)CC3)o2)cc1,x,x,6.7,107.0,i,0.79,-2.4
CC(=O)/C(=C\N(C)C)Sc1ccc(Cl)cc1,x,x,x,85.5,i,1.04,x
COc1ccc(NC(=S)Nc2ccc(OC(F)F)cc2)cn1,x,x,-2.1,100.0,i,1.07,x
Cc1ccc(NC(=O)Cn2cnc3c(cnn3C(C)(C)C)c2=O)cc1,-7.1,93.8,-7.5,97.7,i,0.957,-2.0
COc1ccccc1CNc1nc(S(=O)(=O)c2ccccc2)c(Cl)s1,-58.1,79.5,1.3,96.0,i,1.01,-0.7
COC(=O)CSc1nnc(-c2cnccn2)n1C,30.2,127.4,-10.8,71.2,i,0.98,-1.1
O=C(CN1N=C(C(F)(F)F)CC1(O)c1ccc([N+](=O)[O-])cc1)c1ccccc1 (centres undefined),-38.1,70.3,2.0,x,i,1.06,-1.1
COc1ccccc1CC(=O)N1CCN(c2ccccn2)CC1,30.6,49.7,-8.1,93.2,i,1,-1.3
COc1ccc(CNC(=O)CN(CC2CCCO2)C(=O)CNS(=O)(=O)c2ccccc2)cc1 (centres undefined),-181.8,76.2,-12.3,121.7,i,0.89,-1.4
C=CCOC(=O)c1c(C)nc2cc3c(cc2c1C)OCO3,-43.3,34.4,-5.7,92.0,i,1.06,-0.8
COC(=O)C1CSC(C(=O)OC)N1C(=O)Nc1ccc(Cl)cc1 (centres undefined),9.7,118.2,-5.0,93.3,i,0.96,-0.9
O=C(c1ccc(O)cc1)c1ccc(C(=O)c2ccc(O)cc2)cc1,-58.3,98.5,0.3,101.8&105.5,i,0.875,1.3
CCn1c(=S)[nH]c2scc(-c3cccs3)c2c1=O,0.0,87.9,-2.5,106.9,i,1.07,x
COc1ccc(-c2csc(Nc3ncccc3C)n2)cc1,73.0,57.5,10.4,88.6,i,0.89,-1.7
CCC(=O)Nc1ccc(C(=O)NCCCn2ccnc2)cc1,-30.0,91.7,-5.2,103.7,i,1.03,x
Cc1nc2ccc(-c3nc4ccccc4o3)cc2[nH]1,64.1,50.6,-11.7,68.4,i,0.86,-0.5
CN(C)c1ccc(CN(C(=O)c2ccc(Cl)c([N+](=O)[O-])c2)C2CCS(=O)(=O)C2)cc1 (centres undefined),x,x,x,95.7,i,0.87,x
CC1CC(C)C[N+](=C2C=C(N3CCCC3)CC(C)(C)C2)C1 (centres undefined),41.7,99.7,-8.3,98.4,i,0.89,x
